Screens as filed in PubChem BioAssay.
UCH37 inh – inhibitors of human UCH37 deubiquitinase, primary screen, biochemical, Ub-AMC cleavage, fluorescence. 330,000 tested, 0.33% active. inhibition, % (concentration not given with the values). Ubiquitin carboxyl-terminal hydrolase isozyme L5 (Homo sapiens), Q9Y5K5. purified proteasome/UCH37. AID 588478, 2011;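 active means mean of two replicates above 20%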;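 further: 0% = compound-free wells with enzyme and 100% = wells lacking proteasome; stock transfer was 100 nL into about 20 µL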
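Schedule: 30 min plus 25 min, room temperature / Material: human UCH37 within purified proteasomes / Technique: AMC fluorescence intensity at 355/460 nm / Buffer or medium: pH 7.4 Tris-HCl (50 mM) with ovalbumin, ATP-MgCl2, DTT / Controls: wells without proteasome as full block, compound-free enzyme plus substrate as uninhibited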
Calb FLC – C. albicans growth inhibition with fluconazole, primary screen, CaCi-2 strain, Alamar Blue fluorescence; C. albicans CaCi-2 (fluconazole-resistant clinical isolate) + fluconazole, 48 h; growth inhibition, % (no concentration beside the values); 300,000 tested, 0.57% active; AID 1979, 2009;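 active means most replicates above 75%; inconclusive means exactly half above 75%; inactive means most below 75%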;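 further: all wells also contain fluconazole at 8 µg/ml as a sub-toxic cotreatment; 0% = median of DMSO wells and 100% = median of geldanamycin control wells; wells of about 8 µL received 7.5 nL stock; the first replicate is given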
LANA-H2B inh – blockers of LANA interaction with H2A/H2B – biochemical, FP readout, HTS, primary screen | AID 2629, 2010 | Protein LANA1 (Human herpesvirus 8 type P (isolate GK18)), Q9QR71 | cell-free LANA-H2A/H2B peptide, fluorescence polarization | inhibition, % (no concentration beside the values) | 320,000 tested, 0.6% active; in the data active means inhibition mostly above about 10%, no sharp cut-off; inactive means mostly below about 6.7%;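 further: stock transfer was 7.5 nL into about 10 µL; 0% = median of vehicle wells and 100% = median of positive control wells; one replicate is shown; the record names a cut of 25% in any replicate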
Target sequence (Q9QR71 whole entry, looked up): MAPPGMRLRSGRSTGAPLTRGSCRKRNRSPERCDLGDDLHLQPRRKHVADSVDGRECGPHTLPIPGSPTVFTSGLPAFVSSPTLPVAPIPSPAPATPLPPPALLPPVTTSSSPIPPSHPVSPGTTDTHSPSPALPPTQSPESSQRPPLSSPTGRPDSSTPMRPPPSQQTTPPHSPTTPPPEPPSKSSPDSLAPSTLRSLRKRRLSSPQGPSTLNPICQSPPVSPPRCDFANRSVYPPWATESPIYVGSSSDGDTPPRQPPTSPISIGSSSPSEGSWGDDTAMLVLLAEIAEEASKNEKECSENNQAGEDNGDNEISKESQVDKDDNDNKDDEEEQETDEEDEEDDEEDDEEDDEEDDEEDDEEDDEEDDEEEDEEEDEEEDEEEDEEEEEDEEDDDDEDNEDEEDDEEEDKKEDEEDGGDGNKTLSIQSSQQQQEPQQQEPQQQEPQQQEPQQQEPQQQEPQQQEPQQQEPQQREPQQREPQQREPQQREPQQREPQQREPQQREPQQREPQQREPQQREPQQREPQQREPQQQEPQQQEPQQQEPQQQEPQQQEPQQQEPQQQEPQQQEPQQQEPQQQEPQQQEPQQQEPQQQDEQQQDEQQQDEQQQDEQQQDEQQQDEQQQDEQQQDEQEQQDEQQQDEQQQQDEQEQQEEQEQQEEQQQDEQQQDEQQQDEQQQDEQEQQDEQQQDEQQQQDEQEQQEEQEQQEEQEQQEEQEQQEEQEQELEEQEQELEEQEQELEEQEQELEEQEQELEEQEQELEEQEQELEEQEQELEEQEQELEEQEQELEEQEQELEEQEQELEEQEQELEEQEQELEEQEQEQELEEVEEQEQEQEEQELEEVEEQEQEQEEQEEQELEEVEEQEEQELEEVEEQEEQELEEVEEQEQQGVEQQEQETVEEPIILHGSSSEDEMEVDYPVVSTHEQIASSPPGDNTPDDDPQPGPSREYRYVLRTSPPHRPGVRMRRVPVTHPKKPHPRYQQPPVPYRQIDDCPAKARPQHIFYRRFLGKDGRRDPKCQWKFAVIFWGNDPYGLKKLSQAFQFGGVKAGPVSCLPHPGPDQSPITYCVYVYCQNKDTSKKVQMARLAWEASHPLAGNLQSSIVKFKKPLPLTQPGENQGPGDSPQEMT
Beta cell apopt – inhibitors of cytokine-induced beta cell apoptosis, primary screen, luminescence; INS-1E cytokine-induced death, ATP luminescence, 48 h; percent of positive-control rescue, neutral wells zero; protection from apoptosis, % (concentration not given with the values); 300,000 tested, 0.8% active; AID 435005, 2010;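 active means all replicates at 75% or more, or half of them and the mean; inconclusive means half reach 75% but not the mean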;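 further: 0% = cytokine-treated negative control wells and 100% = positive control rescue; higher means more ATP so stronger rescue from cytokine killing; wells of about 40 µL received 100 nL stock; the first replicate is given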
B2AR ag – beta2AR agonists driving receptor internalization, primary screen, cell-based, FAP fluorogen, flow cytometry; Beta-2 adrenergic receptor (Homo sapiens), P07550; Am2.2-beta2AR cells; reference of the scale not given here; response, % (test concentration not listed); 340,000 tested, 0.43% active;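 active means response above a set limit, near 3 SD of response in nonfluorescent compounds, cut at about 42% in these data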;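 further: stock transfer was 100 nL into about 11 µL; a reference agonist was the positive control; negative values mostly stem from fluorescent compounds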
RanGTP-Impb inh – inhibitors of RanGTP-importin-beta interaction, primary screen, biochemical, FRET, CFP-Ran, YFP-importin-beta, homogeneous; 300,000 tested, 1.1% active; inhibition, % (concentration not given with the values); Ran GTPase (GTP-bound) - importin-beta complex; cell-free CFP-Ran/YFP-importin-beta FRET ratio;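 active means most replicates above 15%; inconclusive means exactly half above 15%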;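 further: 0% = DMSO wells and 100% = Ran loaded with GDP instead of GTP; wells of about 40 µL received 100 nL stock; the first replicate is given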
T cruzi inh – inhibitors of intracellular T. cruzi growth, primary screen, luminescence, NIH3T3 host cells; T. cruzi beta-gal in NIH3T3, 90 h; inhibition, % (test concentration not listed); 300,000 tested, 1.4% active; AID 1885, 2009;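 active means mean inhibition across valid replicates above about 55%, limit read from the data; inconclusive means mean below that limit but half or more replicates reach it; inactive means mean below it, under half of replicates reach it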;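 further: signal also drops with host cell toxicity which is not excluded here; 0% = plate median of DMSO wells and 100% = zero luminescence signal; higher percent means less beta-gal luminescence so fewer parasites; stock transfer was 50 nL into about 50 µL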
Bfl-1 A1 inh – caspase 3/7 activation in MEF A1-2A-BIM cells, primary screen, A1 inhibitor project, cell-based, luminescence, HTS; caspase activation, % (no concentration beside the values); Caspase-Glo 3/7 luminescence, 3 h; percent of clofoctol response, vehicle zero; 330,000 tested, 0.066% active;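 active means over half of replicate activation scores above 10%, or exactly half above 10 with the replicate mean above 10; inconclusive means replicate mean below 10 yet half the replicates above 10; inactive means over half of replicates below 10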;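 further: wells of about 30 µL received 50 nL stock; many hits fall short of the cut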
An asterisk follows results filed as active; ? = inconclusive; · = not tested or not shown.

Preview, 5 compounds:
Order of values: UCH37 inh	Calb FLC	LANA-H2B inh	Beta cell apopt	B2AR ag	RanGTP-Impb inh	T cruzi inh	Bfl-1 A1 inh
- O=C(NN=C1CCN(Cc2ccccc2)CC1)c1ccccc1
→ 5.7	?	1.9	-1	5	4.8	18	-0.1
- Cc1ccn2c(=O)nc(SCC(=O)c3ccc(Cl)cc3)nc2c1
→ 3.9	-3	-3.0	·	3	-1.7	4	-0.8
- COCCNc1nnc(Cc2ccc(OC)c(OC)c2)c(=O)[nH]1
→ 2.1	-8	-10	0	-11	2.6	-14	1.2
- CCOc1ccccc1NC(=O)CSc1nnnn1-c1ccccc1
→ 0.8	-15	2.1	-4	3	-2.6	3	0.7
- COc1cccc(C(=O)OCCCOC(=O)c2cccc(OC)c2OC)c1OC
→ -2.5	-5	0.7	-3	-1	2.5	6	-0.9

The listing, from the first entry:
Order of values: UCH37 inh	Calb FLC	LANA-H2B inh	Beta cell apopt	B2AR ag	RanGTP-Impb inh	T cruzi inh	Bfl-1 A1 inh
- O=C(NN=C1CCN(Cc2ccccc2)CC1)c1ccccc1
→ 5.7	?	1.9	-1	5	4.8	18	-0.1
- Cc1ccn2c(=O)nc(SCC(=O)c3ccc(Cl)cc3)nc2c1
→ 3.9	-3	-3.0	·	3	-1.7	4	-0.8
- COCCNc1nnc(Cc2ccc(OC)c(OC)c2)c(=O)[nH]1
→ 2.1	-8	-10	0	-11	2.6	-14	1.2
- CCOc1ccccc1NC(=O)CSc1nnnn1-c1ccccc1
→ 0.8	-15	2.1	-4	3	-2.6	3	0.7
- COc1cccc(C(=O)OCCCOC(=O)c2cccc(OC)c2OC)c1OC
→ -2.5	-5	0.7	-3	-1	2.5	6	-0.9
- CCC1(CC)NC(=O)N(CC(=O)OCC(=O)Nc2cc(OC)ccc2OC)C1=O
→ 2.8	·	11	-2	-1	·	·	-0.6
- N#CC1=C(N)C2=CCCC[C@H]2[C@H](c2ccccc2)C1(C#N)C#N
→ 1.2	6	4.9	-9	-8	-18	-8	-0.2
- COCCCNC(=O)Cn1cc(C(C)=O)c2ccccc21
→ 0.5	1	-1.3	-6	-11	9.2	3	-0.4
- CCc1ccc(CCC(=O)Nc2nccs2)o1
→ -1.6	-16	-3.0	2	9	-0.4	-4	-0.7
- Cc1ccc(S(=O)(=O)C(C)C(=O)NCCS(=O)(=O)c2ccc(Cl)cc2)cc1 (stereo not given)
→ -0.7	21	-1.5	-3	2	3.6	-4	1.4
- Cn1c(CC(=O)Nc2ccc(Cl)cc2)nnc1SCC(=O)N1CCOCC1
→ 5.5	2	-0.9	-4	-5	2.8	-11	0.8
- COc1ccc(CC(=O)Nc2c3c(nn2C(C)(C)C)CS(=O)(=O)C3)cc1
→ 4.8	-7	-3.8	-2	1	-3.7	-8	-0.5
- COc1ccc(CNC(=O)Cn2ccc3cc(S(=O)(=O)N4CCCC4)ccc32)cc1OC
→ 5.0	-9	-4.0	-4	11	0.1	-4	-0.3
- Cc1csc(CNC(=O)c2ccc(OC3CCN(CCc4ccccc4)CC3)cc2)n1
→ 2.1	-2	-1.5	1	4	3.6	-7	0.8
- CC(=O)Nc1ccc(NC(=O)CSc2ccc(-c3ccco3)nn2)cc1
→ 1.8	-6	4.8	4	2	-1.7	0	-0.7
- Cc1cc2c3c([nH]c2cc1S(=O)(=O)NCc1ccc(CN2CCCCCC2)o1)CCCC3=O
→ 2.4	3	2.6	-4	-6	-16	-4	0.0
- Cc1ccc(/C=C2\SC(=S)N(CC(=O)Nc3ncc(Cc4ccccc4Cl)s3)C2=O)cc1
→ 2.1	-15	-7.4	3	·	1.7	-8	-0.4
- CC1(C)CCCC(C)(C)N1CC(O)COCCOc1ccc(Br)cc1 (stereo not given)
→ 2.5	-6	-3.5	·	5	1.3	-1	1.6
- O=C(Nc1ccccn1)c1ccc([N+](=O)[O-])cc1Cl
→ 0.8	0	0.0	2	3	2.6	-1	0.7
- COc1ccccc1-n1cn[nH]c1=S
→ 0.7	-6	4.8	-11	9	5.4	-16	1.0
- CN1CCC(N(C)C(=S)Nc2ccc(SC(F)F)cc2)CC1
→ 5.3	-23	2.6	-5	0	-4.0	-6	0.7
- O=C(CN(c1ccc(F)cc1)S(=O)(=O)c1ccc2c(c1)OCCO2)NCc1ccncc1
→ 1.7	-9	0.3	-4	8	3.1	-10	1.7
- O=C(NCC1CCCCC1)c1cccc(-c2ccc(O)cc2)c1
→ 3.8	27	-2.1	1	-4	4.6	13	-0.5
- CCC(C)NC(=O)N[C@@H](CCSC)C(=O)O (stereo not given in full)
→ 2.6	-4	-1.5	-2	3	6.1	-5	0.6
- COC(=O)c1ccc(S(=O)(=O)c2ccc(Cl)cc2)c(N)c1
→ -247	-10	-2.4	-11	9	0.2	1	-0.5
- O=C(c1cccc(S(=O)(=O)N2CCCc3ccccc32)c1)N1CCN(c2ccccc2)CC1
→ 3.6	·	-3.8	-6	3	·	·	-0.2
- CCc1ccc(-n2c(SCC(=O)Nc3cc(C)[nH]n3)nc3[nH]ncc3c2=O)cc1
→ -3.0	22	3.0	-2	10	-0.4	0	0.4
- Cc1ccc(CCNS(=O)(=O)c2cc(Br)cnc2N)cc1
→ 0.0	-5	-2.2	-3	-8	0.8	3	0.0
- O=C(CC1NCCc2ccccc21)Nc1cccc(Cl)c1 (stereo not given)
→ 2.3	-2	0.3	·	-1	3.0	15	-2.9
- CCn1c2ccccc2c2cc(Nc3cc(C)nc4ncnn34)ccc21
→ 7.1	13	-1.7	45	42*	0.4	11	?
- Cc1cc(C)n(CC(=O)NNC(=O)CCNC(=O)c2ccccc2Cl)n1
→ -0.6	-3	0.8	1	-4	-2.6	-7	1.6
- Cc1ccccc1CSCCNS(C)(=O)=O
→ 2.8	24	1.2	-6	2	0.9	-18	-0.7
- O=c1c(Cc2ccc(F)cc2)c(O)ccn1CCc1ccccn1
→ -2.6	0	2.2	4	6	-11	-11	-0.1
- O=C(COC(=O)c1ccccc1Cl)Nc1nccs1
→ 0.7	0	2.3	-4	-2	1.4	3	-0.9
- Cc1ccccc1-n1c(SC/C(O)=C(\C#N)c2nc3ccccc3[nH]2)nnc1-c1ccncc1
→ ·	-3	-0.2	-22	11	?	-4	0.0
- COC(=O)[C@H](Cc1ccccc1)NC(=O)c1ccc2ccccc2n1
→ 2.3	-2	0.9	-1	8	4.3	-9	0.6
- Cc1ccc(N2CC(C(=O)Nc3cc(C)on3)CC2=O)c(C)c1 (stereo not given)
→ 4.3	14	3.9	·	-3	2.5	3	-0.4
- COc1ccc(-n2c(C)cc3cc(OC(C)=O)ccc32)cc1
→ 6.0	18	4.2	4	11	2.4	1	-0.9
- COC(=O)c1cc2ccsc2n1CC(=O)Nc1cc(C)cc(C)c1
→ 1.7	-14	-5.5	·	9	-0.5	26	-0.7
- Cc1cc(CN(C)C(=O)CC2C(=O)NCCN2Cc2ccc(-c3ccccc3)cc2)on1 (stereo not given)
→ -0.1	0	1.2	-5	46*	3.0	13	-0.4
- O=C(Nc1ccc(-c2nc3c(ccc4ccccc43)o2)cc1)c1ccco1
→ -139	16	4.5	31	2	0.8	4	-4.1
- Cc1ccc2nc(SCC(=O)Nc3ccc(F)cc3)nc(=O)n2c1
→ 7.2	10	-2.7	-2	6	-0.7	-16	-0.2
- COc1ccc(S(=O)(=O)N2CCOCC2)cc1NC(=O)CSc1nnc2ccccn12
→ 5.0	-8	-0.7	-2	·	3.4	19	1.0
- Cc1ccc(NC(=O)c2cc(-c3ccco3)on2)cc1
→ -23	-2	0.9	-11	2	0.4	-5	-0.8
- O=C(Nc1cccc(-c2cn3c(n2)SCC3)c1)c1ccc2ccccc2n1
→ 4.3	36	3.3	-4	-15	-2.3	17	-1.1
- CC(=O)c1ccccc1NS(=O)(=O)c1ccc2c(c1)CC(=O)N2
→ 1.0	·	3.7	-3	-1	·	·	1.4
- COc1ccc(/C=N/NC(=O)c2cc(-c3ccccc3OC)nc3ccccc23)cc1COC(C)=O
→ ·	-3	-3.6	6	5	1.7	1	-0.1
- CC(C)Oc1ccc(CSc2ncn[nH]2)cc1
→ -0.7	4	3.1	-6	5	0.8	-16	-3.1
- COc1ccc(CCNC(=O)CN(c2cccc([N+](=O)[O-])c2)S(C)(=O)=O)cc1
→ 2.8	-10	3.5	-1	-11	2.2	-13	0.8
- O=c1[nH]c(CN2CCN(c3ccccc3Cl)CC2)nc2ccsc12
→ 3.8	-15	-1.2	-11	-1	6.9	-26	0.6
- COc1cccc(-n2c(SCc3ccccn3)nc3c(c2=O)SCC3)c1
→ 6.4	4	-0.7	1	-5	-2.1	19	0.0
- Cc1ccccc1NC(=O)CN1C(=O)S/C(=C\c2cccn2-c2cccc(C(=O)O)c2)C1=O
→ -12	-2	-0.7	2	4	2.6	-3	-1.5
- N#Cc1c(NC(=O)C2C3C=CC(C3)C2C(=O)O)sc2c1CCCCC2 (stereo not given)
→ 4.8	23	-0.8	-3	-6	-6.3	3	0.7
- COc1ccc(N2C(=O)C(Cl)=C(Oc3cccc(OC)c3)C2=O)cc1
→ -1.8	·	1.0	68	5	·	34	0.9
- Cc1cccc(NC(=O)/C(C#N)=C/c2ccc(Sc3ccccc3)o2)c1C
→ -4.6	-2	-1.0	8	5	4.8	5	0.2
- O=C(CCC1(C(=O)O)CCC(=O)NC1)NCc1ccccc1 (stereo not given)
→ -1.6	-10	-2.3	-2	-2	2.4	8	0.0
- CN(C)C(/C=C/Nc1ccccc1F)=C(C#N)C#N
→ 8.4	1	4.6	1	1	1.7	-23	0.4
- Cc1ccc(S(=O)(=O)N(C)CC(=O)NNC(=O)CCS(=O)(=O)c2ccccc2)cc1
→ 4.6	·	-3.4	-8	2	·	·	-0.7
- CCCC(c1nnnn1C(C)(C)CC)N1CCN(C(=O)c2ccco2)CC1 (stereo not given)
→ 0.9	-4	-2.6	-6	-12	-1.8	-1	0.0
- Cc1ccnc(NC(=O)CCC(=O)N(CC(=O)NC(C)(C)C)C2CCCC2)c1
→ 1.0	-1	-1.5	-8	10	0.2	1	1.1
- CC(=O)c1cccc(NC(=O)c2cccc(N3C(=O)c4ccccc4C3=O)c2)c1
→ 5.9	23	2.4	-1	7	-1.1	-7	-1.8
- O=C(CSc1ncn[nH]1)Nc1cccc(S(=O)(=O)N2CCCCCC2)c1
→ -5.4	16	1.7	-3	-1	4.6	-7	0.6
- COc1ccccc1C(C[N+](=O)[O-])c1c[nH]c2ccccc12 (stereo not given)
→ 3.6	41	-1.3	-3	14	4.4	7	0.7
